RE007 growth inh = less growth of the S. pombe RE007 Vpr strain; Potency, µM (top dose mostly 92.2 µM), without a hit: at the highest dose activity change, negative = less growth; S. pombe RE007 Vpr strain, BacTiter-Glo ATP luminescence, 24 h; control for the full effect not named in the record; 360,000 compounds, 0.21% hits; active = well fitted falling curve with a large enough effect; inconclusive = small, poorly fitted or top-dose-only effect; inactive = no such curve, though single readings can be large or run the other way;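 also: % is scaled to controls: 0 for no effect and ±100 for the full control effect; nearly all actives have a fitted effect of over 50% in size; the assay follows cell death caused by Vpr and the record does not say whether a fall means rescue or toxicity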
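Fission yeast strain RE007, carrying one chromosomally integrated HIV-1 vpr copy, was seeded at OD 0.01 in PMG+AL medium with 23 nL pinned compound. After 24 h at 30 °C and 99% humidity, viability was read by BacTiter-Glo luminescence.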
Cruzain inh Det = inhibitors of Trypanosoma cruzi cruzain with detergent; Potency, µM, for the others: max response, negative = inhibition, hits mostly inhibitors; AID 1478; 200,000 compounds, 0.43% hits; purified cruzain, Z-FR-AMC fluorescence, 0.01% Triton; P25779;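 also: plate controls were neutral wells for no effect and buffer without enzyme for full effect; nearly all actives have a fitted effect of over 40% in size; top concentration of the series not given in the record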
Target sequence (P25779 123-467 limits assumed): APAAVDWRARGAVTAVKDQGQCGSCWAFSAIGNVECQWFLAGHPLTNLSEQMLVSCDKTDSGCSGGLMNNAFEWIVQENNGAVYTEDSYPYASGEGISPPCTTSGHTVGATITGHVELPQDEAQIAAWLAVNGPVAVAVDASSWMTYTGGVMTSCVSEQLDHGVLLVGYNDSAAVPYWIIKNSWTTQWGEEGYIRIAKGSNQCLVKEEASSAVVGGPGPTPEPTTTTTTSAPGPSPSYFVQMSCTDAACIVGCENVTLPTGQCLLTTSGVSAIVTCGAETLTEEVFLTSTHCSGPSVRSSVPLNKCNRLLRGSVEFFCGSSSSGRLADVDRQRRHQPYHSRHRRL
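Detergent-containing run (0.01% Triton X-100) in acetate buffer pH 5.5 with 5 mM DTT: enzyme at 1.5 nM final, 15 min compound preincubation at room temperature, then 2 uM Z-FR-AMC substrate. Activity taken as 60 s fluorescence increase at 360/450 nm.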
StopGo reporter = lowers the luciferase signal of an FMDV 2A StopGo reporter. human cells with a luciferase reporter of 2A StopGo recoding; control for the full effect not named in the record. Potency, µM (titrated, usually from 57.9 µM), inactives show at the highest dose signal change, negative = less light. 410,000 compounds, 1.2% hits. AID 1159524; active = well fitted falling curve with a large enough effect; inconclusive = small, poorly fitted or top-dose-only effect; inactive = no such curve, though single readings can be large or run the other way; tested in HEK293T cells; also: % is scaled to controls: 0 for no effect and ±100 for the full control effect; nearly all actives have a fitted effect of over 45% in size; luciferase light after 4 h
Cruzain inh noDet = inhibitors of Trypanosoma cruzi cruzain without detergent; P25779; purified cruzain, Z-FR-AMC fluorescence, no detergent; Potency, µM, for inactives: max response, negative = inhibition, usual class: inhibitors; 200,000 compounds, 2.3% hits; AID 1476;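 also: plate controls were enzyme without inhibitor for no effect and buffer without enzyme for full effect; nearly all actives have a fitted effect of over 40% in size; top concentration of the series not given in the record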
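Purified cruzain at 1.5 nM, pre-incubated 15 min with compound at room temperature in 100 mM sodium acetate pH 5.5, 5 mM DTT, 0.00005% Triton X-100. Reaction started with 2 uM Z-FR-AMC; AMC fluorescence increase over 60 s gives rate.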
NS1 inh = blocks influenza NS1 protein function. 270,000 compounds, 0.4% hits. S. cerevisiae slowed by influenza A NS1, growth recovery by OD600. Potency, µM (doses to about 46.1 µM), for inactives: at the top dose activity, positive = more growth; active means well fitted rising curve with a large enough effect; inconclusive means small, poorly fitted or top-dose-only effect; inactive means no such curve, though single readings can be large or run the other way; also: nearly all actives have a fitted effect of over 50% in size
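Growth recovery, yeast-based: influenza A NS1 expressed in S. cerevisiae causes slow growth, and suppressors are detected by OD600. The parent strain without NS1 is used as positive control.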
Lassa entry inh = Lassa virus entry inhibition; Lassa virus pseudotype entry inhibition, cell reporter; control for the full effect not named in the record; Potency, µM (titrated, usually from 37.9 µM), without a hit: at the top dose activity change, negative = inhibition, actives largely listed as inhibitors; 300,000 compounds, 1.2% hits; active means well fitted inhibition curve with a large enough effect; inconclusive means small, poorly fitted or top-dose-only effect, or effect the other way; inactive means flat fitted curve, though single readings scatter; tested in HEK293 cells; also: % is scaled to controls: 0 for no effect and ±100 for the full control effect; nearly all actives have a fitted effect of over 50% in size; luciferase read-out
Marburg entry inh = inhibitors of Marburg virus binding or cell entry. Marburg virus pseudotyped entry inhibition, cell reporter; control for the full effect not named in the record; about a third of the inactives were read at about 46 µM. AID 540276. Potency, µM (titrated, usually from 37.8 µM), inactives show at the top dose activity change, negative = inhibition, hits mostly inhibitors. 300,000 compounds, 1.8% hits; active = well fitted inhibition curve with a large enough effect; inconclusive = small, poorly fitted or top-dose-only effect, or effect the other way; inactive = flat fitted curve, though single readings scatter; tested in HEK293 cells; about a fifth of its hits are not listed in these tables; also: % is scaled to controls: 0 for no effect and ±100 for the full control effect; luciferase read-out
SARS PLpro yeast = blocks SARS-CoV papain-like protease in a yeast assay; 330,000 compounds, 0.19% hits; AID 485353; S. cerevisiae expressing SARS-CoV PLpro, growth rescue; control for the full effect not named in the record; Potency, µM (highest dose often 32.9 µM), without a hit: at the top dose activity, positive = growth rescue; active means well fitted rising curve with a large enough effect; inconclusive means small, poorly fitted or top-dose-only effect; inactive means no such curve, though single readings can be large or run the other way; also: 0% is about no effect; nearly all actives have a fitted effect of over 55% in size; growth read by luminescence after 48 h
* = called active by the depositor; [ ] = another dose, or the depositor's remark. Unless noted, calls follow the shape of the dose curve; as a rule, active = well fitted curve in the direction sought with a large enough effect; inconclusive = small, poorly fitted or top-dose-only effect, or another doubt; inactive = no such curve, though single readings can be large; an effect the other way counts as inactive or inconclusive. Potency is read from the fitted curve at half-maximal effect. No enrichment for hits; overall some 4.8% were active at least once.

C=CCN(CC=C)S(=O)(=O)c1ncn[nH]1 was read as RE007 growth inh -6%, Cruzain inh Det -2.0%, StopGo reporter -16%, Cruzain inh noDet 5%, NS1 inh 4%, Lassa entry inh -23%, Marburg entry inh 29% and SARS PLpro yeast -3%.
`C/C(=N\NC(=O)c1c[nH]c2ccccc12)c1ccco1` gave RE007 growth inh -3%, Cruzain inh Det -3.1%, Cruzain inh noDet 3%, NS1 inh 4%, Lassa entry inh inconclusive, Marburg entry inh 27% and SARS PLpro yeast 11%.
Screening Cc1ccc(C)c(S(=O)(=O)c2nnn3c2nc(Nc2ccc(F)c(Cl)c2)c2sccc23)c1 returned Cruzain inh Det -3.5%, StopGo reporter 0%, Cruzain inh noDet -8% and Lassa entry inh 6%[46.1 µM].
CSc1cccc(NC(=O)c2ccc(CN3CCc4ccccc4C3)cc2)c1 was read as RE007 growth inh -2%, StopGo reporter inconclusive, NS1 inh -53%, Lassa entry inh inconclusive, Marburg entry inh inconclusive and SARS PLpro yeast -4%.
Screening CC(=O)Nc1ccc(NC(=O)C(C)OC(=O)C2CC3C=CC2C3)cc1 (stereo not drawn) returned RE007 growth inh 13%, Cruzain inh Det -1.6%, StopGo reporter -16%, Cruzain inh noDet 26%, NS1 inh 4%, Lassa entry inh 2%, Marburg entry inh -10% and SARS PLpro yeast 4%.
`CCOC(=O)c1c(C)[nH]c(C)c1C(=O)CSc1nc2ccccc2c(=O)n1-c1ccc(CC)cc1` gave RE007 growth inh -5%, Cruzain inh Det -4.1%, StopGo reporter inconclusive, Cruzain inh noDet 3%, NS1 inh 4%, Lassa entry inh 21%, Marburg entry inh 15% and SARS PLpro yeast 4%.
`Cc1cc(=O)oc2cc(OCCc3ccccc3)ccc12` gave RE007 growth inh -3%, StopGo reporter 28%, NS1 inh -63%, Lassa entry inh inconclusive, Marburg entry inh inconclusive and SARS PLpro yeast -3%.
Screening COc1ccccc1/C=C1\SC(=S)N(CCC(=O)Nc2nnc(C)s2)C1=O returned RE007 growth inh 0%, StopGo reporter -20%, NS1 inh 0%, Lassa entry inh 3%, Marburg entry inh 4%[46.1 µM] and SARS PLpro yeast 4%.
For COc1ccc(CCNC(=O)C/C(C)=N/NC(=O)c2ccc(Cl)cc2Cl)cc1OC the results were RE007 growth inh 3%, StopGo reporter -4%, NS1 inh -3% and SARS PLpro yeast 1%.
`COc1cc(C(=O)Nc2ccc3oc(-c4ccc(C)c(Br)c4)nc3c2)cc(OC)c1OC` gave Cruzain inh Det 2.1%, StopGo reporter -14%, Cruzain inh noDet -1% and Lassa entry inh 19%[46.1 µM].
`COc1ccc2nc(C)cc(N3CC(C)OC(C)C3)c2c1` (stereo not drawn) gave RE007 growth inh 2%, Cruzain inh Det -2.0%, StopGo reporter -22%, Cruzain inh noDet -13%, NS1 inh -8%, Lassa entry inh 5%, Marburg entry inh inconclusive and SARS PLpro yeast -3%.
For Cc1csc2nc(O)c(C(=O)NC3CCCCC3C)c(=O)n12 (stereo not drawn) the results were RE007 growth inh -17%, StopGo reporter -17%, Lassa entry inh inconclusive, Marburg entry inh 14%[46.1 µM] and SARS PLpro yeast 7%.
Cc1ccc(OCC(=O)N[C@@H](C)c2nnc3ccccn23)cc1C was read as RE007 growth inh -17%, StopGo reporter -16%, NS1 inh -4% and SARS PLpro yeast -4%.
Cc1nc(CC(=O)N2CCN(c3cccc(C)c3C)CC2)cs1 was read as RE007 growth inh -5%[3.69 µM], Cruzain inh Det 1.6%, StopGo reporter -16%, Cruzain inh noDet -3%, NS1 inh -4%, Lassa entry inh 5%, Marburg entry inh -10% and SARS PLpro yeast 0%.
Screening N#Cc1cnn2c(-c3ccccc3)ccnc12 returned RE007 growth inh 1%, Cruzain inh Det -8.9%, StopGo reporter -5%, Cruzain inh noDet 2%, NS1 inh -2%, Lassa entry inh -1% and Marburg entry inh -1%.
For COc1cccc(NC(=O)CSC2=C(C#N)C(c3ccco3)C3=C(CCCC3=O)N2)c1 (stereo not drawn) the results were RE007 growth inh 4%, Cruzain inh Det -5.6%, StopGo reporter 14%, Cruzain inh noDet -22%, NS1 inh -4%, Lassa entry inh 13µM*, Marburg entry inh -7% and SARS PLpro yeast -3%.
Screening COc1ccc(Cl)cc1NC(=O)CCn1c(=O)c2cccn2c2ccccc21 returned Cruzain inh Det -6.1%, StopGo reporter 0%, Cruzain inh noDet 26% and Lassa entry inh inconclusive.
Screening CCOc1ccc(NC(=O)N(CCC(C)C)C(C)c2ccco2)cc1 (stereo not drawn) returned RE007 growth inh 15%, Cruzain inh Det -3.0%, StopGo reporter 10%, Cruzain inh noDet -2%, NS1 inh -46%, Lassa entry inh -14%, Marburg entry inh -1% and SARS PLpro yeast -12%.
For COc1ccccc1C(=O)NC(=O)COC(=O)c1ccc(Cl)nc1 the results were RE007 growth inh 3%, StopGo reporter -21%, Lassa entry inh 23%, Marburg entry inh 28% and SARS PLpro yeast 3%.
Screening CN(CC(=O)Nc1cccc(S(=O)(=O)N2CCCC2)c1)CC(=O)Nc1ccc(Cl)c(C(F)(F)F)c1 returned RE007 growth inh 1%, StopGo reporter -22%, Lassa entry inh inconclusive, Marburg entry inh inconclusive and SARS PLpro yeast 0%.
C=CCOC(=O)C1=C(C)NC(=O)NC1c1ccc(OC(=O)c2ccco2)c(OC)c1 (stereo not drawn) was read as RE007 growth inh 1%, Cruzain inh Det -2.2%, StopGo reporter -16%, Cruzain inh noDet -4%, NS1 inh 0%, Lassa entry inh 5%, Marburg entry inh 3% and SARS PLpro yeast 1%.
COc1cc2c(cc1OC)C(c1cccc(OC)c1OC)CC(=O)N2 (stereo not drawn) was read as RE007 growth inh -12%[3.69 µM], Cruzain inh Det -0.9%, StopGo reporter -11%, Cruzain inh noDet 3%, NS1 inh -1%, Lassa entry inh -20%, Marburg entry inh 2% and SARS PLpro yeast 6%.
For c1ccc(OCc2nnc(-c3ccccc3)o2)cc1 the results were RE007 growth inh -15%, StopGo reporter 74%[activator], Lassa entry inh 11%, Marburg entry inh 12%[46.1 µM] and SARS PLpro yeast 2%.
For CC12CCC(C(=O)N3CCCc4ccccc43)(OC1=O)C2(C)C (stereo not drawn) the results were RE007 growth inh -11%, Cruzain inh Det -1.2%, StopGo reporter -9%, Cruzain inh noDet -3%, NS1 inh 17%, Lassa entry inh -26%, Marburg entry inh 7% and SARS PLpro yeast 18%.
O=C(CSc1nnc(Cc2cccs2)n1C1CCCCC1)N1CCN(C(=O)c2ccco2)CC1 was read as RE007 growth inh 5%, Cruzain inh Det 1.1%, StopGo reporter 31%[activator], Cruzain inh noDet 5%, NS1 inh -10%, Lassa entry inh -27%, Marburg entry inh 6% and SARS PLpro yeast -2%.
`CC(=O)Nc1ccc(NC(=O)C2CC(=O)N=C(N)S2)cc1` (stereo not drawn) gave RE007 growth inh -17%, Cruzain inh Det 4.1%, StopGo reporter -10%, Cruzain inh noDet -5%, NS1 inh 4%, Lassa entry inh 3%, Marburg entry inh 3% and SARS PLpro yeast -15%.
Screening COc1cccc(CNC(=O)CCCCCn2c(=O)[nH]c3cc(OC)c(OC)cc3c2=O)c1 returned Cruzain inh Det 1.9%, StopGo reporter -13%, Cruzain inh noDet 23%, Lassa entry inh -15%[46.1 µM] and Marburg entry inh -1%[46.1 µM].
`COc1ccc(CNc2nc3nc(C)cc(C)n3n2)cc1OC` gave RE007 growth inh 1%, Cruzain inh Det -0.6%, StopGo reporter 27%, Cruzain inh noDet -21%, NS1 inh -1%, Lassa entry inh 11%, Marburg entry inh 9% and SARS PLpro yeast 1%.
O=C(c1ccoc1)N1CCC2(CCCN(Cc3ccc(F)c(F)c3)C2)C1 (stereo not drawn) was read as RE007 growth inh -21%, StopGo reporter 0%, NS1 inh 15%, Lassa entry inh 2%, Marburg entry inh 15% and SARS PLpro yeast 2%.
For COc1ccc(-n2cnc3cc(N)ccc32)cc1 the results were RE007 growth inh -13%, Cruzain inh Det 0.1%, Cruzain inh noDet -14%, NS1 inh 20%, Lassa entry inh inconclusive, Marburg entry inh 6% and SARS PLpro yeast -2%.
Screening CCOC(=O)c1c(N)sc2c1CCS(=O)(=O)C2 returned RE007 growth inh 9%, Cruzain inh Det 0.9%, StopGo reporter 13%, Cruzain inh noDet -4%, NS1 inh -8%, Lassa entry inh 15%, Marburg entry inh -13% and SARS PLpro yeast 25%.
Screening CCN(CC(=O)Nc1ccccc1OC)C(=O)c1ccc(N(C)S(=O)(=O)c2ccc(C)cc2)cc1 returned RE007 growth inh 13%, StopGo reporter inconclusive, Lassa entry inh -6%, Marburg entry inh -26% and SARS PLpro yeast 0%.
`CCOc1ccc(-n2cc(-c3ccccc3)c3c(=O)[nH]cnc32)cc1` gave RE007 growth inh 19%, StopGo reporter 2%, Lassa entry inh inconclusive, Marburg entry inh 4%[46.1 µM] and SARS PLpro yeast -6%.
Screening Cc1cccc(C)c1NC(=O)CSCc1cccc(CSCC(=O)Nc2c(C)cccc2C)n1 returned RE007 growth inh 19%, Cruzain inh Det 0.6%, StopGo reporter -23%, Cruzain inh noDet 6%, NS1 inh -3%, Lassa entry inh 1%, Marburg entry inh -7% and SARS PLpro yeast 1%.
Screening CCN(Cc1ccccc1)Cc1cc(OC)cc(OC)c1 returned RE007 growth inh 12%, Cruzain inh Det -2.3%, StopGo reporter -15%, Cruzain inh noDet 9%, NS1 inh -6%, Lassa entry inh inconclusive, Marburg entry inh inconclusive and SARS PLpro yeast 6%.
Screening CCN(CC)CC(=O)N(CC(=O)Nc1c(C)cc(C)cc1C)C1CCCCC1 returned RE007 growth inh 10%, Cruzain inh Det 3.0%, StopGo reporter 23%, Cruzain inh noDet 2%, NS1 inh -1%, Lassa entry inh 16%, Marburg entry inh inconclusive and SARS PLpro yeast 2%.
`CC(C)(C)OC(=O)NNC(=O)Nc1ccccc1C(F)(F)F` gave RE007 growth inh 4%, StopGo reporter -6%, Lassa entry inh 1%, Marburg entry inh -2%[46.1 µM] and SARS PLpro yeast 1%.
`COc1ccc(CC(=O)NCCC(C)C)cc1S(=O)(=O)N1CCOCC1` gave RE007 growth inh -8%, StopGo reporter 9%, NS1 inh -2%, Lassa entry inh 5%, Marburg entry inh -7% and SARS PLpro yeast 0%.

Screening results from PubChem BioAssay.
